Compound activity (PubChem)
gsp antagonist – antagonists of gsp mutant (McCune-Albright syndrome). 340,000 tested, 0.4% active. Potency, µM (titrated, usually from 76.9 µM), for inactives: at the top dose activity change, negative = inhibition, usual class: inhibitors. gsp-mutant cells, cAMP HTRF, 30 min; control for the full effect not named in the record; active = falling curve of any shape with a large fitted effect; inconclusive = falling curve, mostly with a smaller effect; inactive = flat or rising curve; cell line not stated here;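 note: intracellular cAMP measured with PDE inhibitor Ro 20-1724 present during compound exposure; potency is the fitted concentration of half-maximal effect; % is set by controls: 0 for no effect and ±100 for the full control effect; nearly all actives have a fitted effect of over 65% in size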
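Measurement of cellular cAMP by homogeneous time-resolved fluorescence following a 30 min compound exposure at 37C. The PDE inhibitor […] was present throughout; the assay buffer was DPBS with 0.05% BSA and 0.005% Tween 20.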
TRPML1 blocker – human mucolipin-1 channel inhibition; Q9GZU1; TRPML1-inducible cells, Ca2+ dye fluorescence, FDSS; stronger effect = lower value; inhibition of EC80 agonist-evoked calcium signal; activity change, negative = inhibition, % (no concentration beside the values); 390,000 tested, 0.02% active; in the data active means activity change below about -50%; inconclusive means about -30% to -50%; inactive means above about -30%;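 note: stimulus is agonist 54-4 at its EC80 concentration; % is set by controls: 0 for no effect and ±100 for the full control effect; compound concentration not given in the record; the text of the record puts the active cut at -80%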
Target sequence (Q9GZU1 whole entry, looked up): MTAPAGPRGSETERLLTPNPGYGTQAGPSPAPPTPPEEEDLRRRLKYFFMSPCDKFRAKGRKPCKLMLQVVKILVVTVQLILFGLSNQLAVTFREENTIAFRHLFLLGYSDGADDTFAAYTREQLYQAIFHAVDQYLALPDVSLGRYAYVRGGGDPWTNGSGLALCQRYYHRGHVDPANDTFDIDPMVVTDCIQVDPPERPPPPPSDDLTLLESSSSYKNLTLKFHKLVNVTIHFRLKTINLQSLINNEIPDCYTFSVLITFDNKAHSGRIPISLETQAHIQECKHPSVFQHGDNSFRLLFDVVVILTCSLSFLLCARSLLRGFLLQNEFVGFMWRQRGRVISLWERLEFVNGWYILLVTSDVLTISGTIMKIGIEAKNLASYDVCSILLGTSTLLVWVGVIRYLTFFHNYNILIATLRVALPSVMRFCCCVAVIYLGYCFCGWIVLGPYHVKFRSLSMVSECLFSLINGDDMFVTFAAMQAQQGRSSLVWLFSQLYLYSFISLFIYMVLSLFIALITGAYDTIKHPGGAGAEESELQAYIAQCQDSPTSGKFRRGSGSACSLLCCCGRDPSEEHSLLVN
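Calcium fluorescence in TRPML1-DL cells induced overnight with Tet: a 110 s read after compound pin addition, then a 110 s antagonist read after challenge with 54-4 at 4 uM final (EC80).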
TRPML1 ag – human mucolipin-1 channel agonism; Q9GZU1; TRPML1-expressing cells, Ca2+ dye fluorescence, FDSS; host cell line not named in the record; reference of the full effect not given here; activation, % (concentration not given with the values); 410,000 tested, 0.12% active; in the data active = activation above about 50%; inconclusive = about 30% to 50%; inactive = below about 30%; note: 0% is about no effect; the text of the record puts the active cut at 80%
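Cells: TRPML1-DL, 1X Tet inducer, ~16 h at 37 degrees C/5% CO2. Dye: ABD Ca8 no-wash + quencher, 45-90 min RT. Read: 10 s baseline, compound add, 110 s agonist phase; 54-4 EC80 (4uM final), 110 s antagonist phase.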
ClpP mod – qHTS Assay for Activators of ClpP; purified B. subtilis ClpP, FRET peptide cleavage, 20 min; Potency, µM (doses to about 57.5 µM), for inactives: top-dose activity change, negative = active; 340,000 tested, 1.9% active; active = well fitted falling curve with a large enough effect; inconclusive = small, poorly fitted or top-dose-only effect; inactive = no such curve, though single readings can be large or run the other way; note: potency is the fitted concentration of half-maximal effect; the source files actives as falling curves though it sought activators and does not explain the sign; nearly all actives have a fitted effect of over 65% in size; many hits overshoot -100%
Target sequence (P80244 whole entry, looked up): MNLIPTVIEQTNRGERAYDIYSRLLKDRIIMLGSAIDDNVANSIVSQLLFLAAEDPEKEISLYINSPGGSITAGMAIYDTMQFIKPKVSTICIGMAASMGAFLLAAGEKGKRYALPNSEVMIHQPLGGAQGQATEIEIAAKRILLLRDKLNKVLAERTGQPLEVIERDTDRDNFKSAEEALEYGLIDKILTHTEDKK
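ClpP 10 microg/mL final, pH 8 Tris/KCl buffer with BSA, glycerol, Tween-20; compound pinned in; FRET-FV substrate; RT 20 min; Ex320/Em430; ΔFRET vs ADEP 5.8 microM, DMSO, no enzyme.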
Menin MLL FP FL – menin-MLL binding inhibition, fluorescein peptide | Fluorescence polarization, fluorescein-MLL peptide displacement from menin | FP activity change, % at 61.4 µM | 290,000 tested, under 10 active | AID 1766; inconclusive = falling polarisation curve, or a change in total fluorescence; inactive = total fluorescence flat and polarisation flat or rising; no compound was filed as active; the % refers to the polarisation; negative = inhibition;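 note: % of control where 0% means no effect; inhibitors lower the polarisation; unlabelled MLL peptide was the positive control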
gsp agonist – agonists of gsp mutant (McCune-Albright syndrome) | Potency, µM (titrated, usually from 76.9 µM), without a hit: top-dose activation (cAMP increase), most hits filed as activators | AID 624287 | gsp mutant cells, cAMP HTRF, 30 min; control for the full effect not named in the record | 340,000 tested, 0.13% active; active = well fitted activation curve with a large enough effect; inconclusive = small, poorly fitted or top-dose-only effect, or another doubt; inactive = no such curve, though single readings can be large or run the other way; cell line not stated here;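 note: phosphodiesterase inhibitor Ro 20-1724 added with compounds to block cAMP breakdown; potency is the fitted concentration of half-maximal effect; nearly all actives have a fitted effect of over 60% in size; about a fifth of the inactives were tested at one dose only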
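Cells in DMEM/10% FBS with G418 were pretreated with compounds in DMSO plus […] (300 uM stock) for 30 min at 37C. cAMP was measured by HTRF (cAMP-d2 plus anti-cAMP antibody-K) after 30 min at room temperature.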
* = called active by the depositor; ? = inconclusive; nt = not tested or not shown; [ ] = dose if it differs, or a comment.

SMILES	gsp antagonist	TRPML1 blocker	TRPML1 ag	ClpP mod	Menin MLL FP FL	gsp agonist
COC(=O)c1cc(S(=O)(=O)N2CCN(C3CCCCC3)CC2)c[nH]1	8%	29	0.2	-1.9%	-0.3	?
CC(c1ccccc1)n1c(N2CCN(C)CC2)nc2c1c(=O)[nH]c(=O)n2C (centres undefined)	1%	-7	-1.0	-0.2%	0.1	-5%
O=C(CCC(=O)c1ccc(F)cc1)NCC1(N2CCCCC2)CCCCC1	9%	-9	-0.3	0.5%	nt	-16%
CC(=O)N1c2ccc(S(=O)(=O)N3CCC(C(=O)NCc4ccc(F)cc4)CC3)cc2CC1C (centres undefined)	-9%	-9	-0.8	-0.4%	3.7	?
COc1cccc(/C=N/NC(=O)CN(C)S(=O)(=O)c2ccccc2)c1OC	24%	4	-0.8	?	nt	-28%
Cc1ccc(C2=CC(=O)C[C@H](c3ccc4c(c3)OCO4)C2)cc1	-17%	0	0.5	-0.7%	nt	nt
Cc1ccc(C(C)C)c(OCC(=O)N2CCN(c3ncccn3)CC2)c1	-2%	-13	1.0	-8.2%	nt	?
CC1CCN(S(=O)(=O)c2ccc3[nH]c(=O)c(=O)[nH]c3c2)CC1	-1%	-2	-0.4	?	-1.0	?
CCOC(=O)CN1CC23C=CC(O2)C(C(=O)Nc2ccc(OCC)cc2)C3C1=O (centres undefined)	8%	-3	-0.2	-2.0%	2.8	-7%
COc1cc(C(=O)Oc2ccccc2/C=N/NC(=O)c2ccc(C)cc2)cc(OC)c1OC	4%	4	-0.1	?	1.4	-40%
O=C(CCN1C(=O)c2ccccc2C1=O)NC(=S)Nc1ccccc1	-8%	1	3.8	0.7%	2.3	-3%
Cc1ccccc1CSCCNC(=O)c1ccc(N(C)S(=O)(=O)c2ccccc2)cc1	9%	29	3.5	-0.2%	6.6	-5%
COc1ccc(CNC(=O)COC(=O)c2cnccn2)cc1	-3%	4	-0.4	-2.2%	1.7	-2%
COC(=O)c1sc(NC(=O)C2CCCO2)c(C(=O)OC)c1C (centres undefined)	3%	-17	-0.3	0.4%	-2.2	-3%
CCOC(=O)C1=C(C)NC(C)=C(C(=O)OCC)C1C(=O)OCC(=O)N1CCOCC1	6%	5	0.3	-20%	nt	3%[15.4 µM]
CC(C)(C)NC(=O)C(c1ccsc1)N(CCc1ccccc1)C(=O)Cn1nnc2ccccc21 (centres undefined)	3%	12	-0.3	-1.1%	2.2	2%
CC(=O)Nc1ccc(-c2nc3cc(Cl)ccc3o2)cc1	-7%	5	-0.2	nt	0.6	-99%[inhibitor]
CC(NC(=O)C1CCCN1C(=O)OCc1ccccc1)c1ccccc1 (centres undefined)	3%	-3	0.8	0.1%	2.7	-5%
CC(C)(C=O)C1=CC(=O)c2ccccc2C1=O	?	-9	1.8	0.4%	5.8	-13%
CS(=O)(=O)N(CC(O)Cn1c2ccccc2c2ccccc21)c1ccccc1 (centres undefined)	?	9	-0.6	-11%	5.2	5%
CCSc1nc(-c2ccccc2OC)nc2c1Cc1c(CO)cnc(C)c1O2	nt	-3	-0.2	-9.1%	nt	nt
Cc1cn(CC(=O)NCC2CCCO2)c(=O)[nH]c1=O (centres undefined)	-5%	8	-0.3	-3.5%	nt	nt
CCOC(=O)c1csc(NC(=O)c2cc3ccccc3o2)n1	3%	0	-0.1	-1.3%	2.4	-47%[inhibitor]
CCCn1cc(S(=O)(=O)c2ccc(C)c(C)c2)c(=O)c2cc(F)c(N3CCCCC3)cc21	nt	12	0.4	-11%	nt	nt
CS(=O)(=O)NCc1ccc(C(=O)O)cc1	12%	19	0.3	nt	1.5	33%[15.4 µM]

(more compounds)
SMILES	gsp antagonist	TRPML1 blocker	TRPML1 ag	ClpP mod	Menin MLL FP FL	gsp agonist
COc1ccc(OC)c(NC(=S)N2CCN(c3ccccn3)CC2)c1	7%	2	-0.8	-8.3%	1.2	11%
Cc1cc(NC(=O)CCC(=O)N(CC(=O)NC2CCCC2)c2ccc(C(C)C)cc2)no1	-2%	-7	-1.1	0.5%	6.4	0%[15.4 µM]
O=C(Cn1c(=O)[nH]c2ccccc2c1=O)Nc1ccc2c(c1)OCCO2	4%	-5	-1.3	-13%	nt	-5%
Cc1ccccc1NC(=O)c1ccc2c(c1)N(C)CCS2	-18%	-6	-0.7	-6.2%	-1.1	0%
Cc1ccc(C(=O)NC(=O)OCCn2c(C)cnc2[N+](=O)[O-])cc1	13%	-20	-0.4	nt	1.8	-13%[15.4 µM]
CC(=O)c1cccc(NC(=S)NC(=O)c2ccccc2Br)c1	-10%	4	0.6	-1.5%	-2.2	7%
CCC(C)NCCOc1ccccc1C (centres undefined)	16%	-8	-0.1	0.9%	1.1	-1%[15.4 µM]
COc1ccc(CCNC(=O)C2CCCN2C(=O)Nc2ccc(Cl)cc2)cc1OC (centres undefined)	-5%	10	0.6	-0.1%	0.2	6%
O=C(NC(=S)N(CCCCO)C1CCCCC1)c1sc2ccccc2c1Cl	3%	-10	0.2	-5.7%	-2.6	5%
Fc1ccc(Nc2nc3ccccc3s2)cc1	nt	-4	2.6	nt	-0.5	8%[15.4 µM]
COc1ccc2oc(C(=O)OCC(=O)NC3CC3)c(C)c2c1	2%	10	0.6	3.3%	nt	?
CCOC(=O)C1=C(COC(=O)CC(C)c2ccccc2)NC(=O)NC1C (centres undefined)	9%	5	-1.5	0.4%	nt	21%
Cc1ccc(S(=O)(=O)c2cn(CC(=O)Nc3ccc4c(c3)OCO4)c3ccc(C)cc3c2=O)cc1	nt	-1	-0.1	-7.3%	nt	nt
CCn1c(/N=C/c2ccccc2NS(=O)(=O)c2ccc(C)cc2)nc2ccccc21	-36%	16	1.6	0.8%	-0.5	0%
CCc1ccc(C2=NN(C(=O)OC)C(O)(C(F)(F)F)C2)cc1 (centres undefined)	1%	-2	0.5	-0.2%	1.3	-16%
COc1ccc(Cn2ccnc2SCC(=O)Nc2ccc(C)cc2C)cc1	nt	24	2.2	0.7%	nt	nt
CCn1c(SCC(=O)N2CCN(S(=O)(=O)c3ccccc3)CC2)nnc1-c1cccs1	?	1	-0.5	-1.1%	-0.5	-52%[inhibitor]
O=C(COc1ccc(F)cc1)NCC1(N2CCCCC2)CCCCC1	4%	44	1.2	-2.9%	nt	-7%[15.4 µM]
O=C(c1ccccc1F)N1CCN=C1c1ccccc1	11%	4	-0.4	0.0%	-4.2	-4%
Cc1ccc(C(C)C)c(OCC(=O)OCC(=O)c2c(N)n(C)c(=O)n(C)c2=O)c1	-4%	-5	6.2	-1.5%	nt	29%
O=C(NC1CCCC1)c1ccc(CNc2c(N3CCOCC3)c(=O)c2=O)cc1	8%	-5	-0.5	-3.1%	-1.9	4%
O=C(NC1CCCC1)C(c1ccc(N2CCOCC2)cc1)N(Cc1ccccc1)C(=O)c1ccco1 (centres undefined)	0%	7	-0.6	-1.0%	1.7	-9%
CC(=O)Nc1ccc(C(=O)N2CCN(S(=O)(=O)c3ccc4c(c3)OCCCO4)CC2)cc1	-2%	-5	-0.4	-4.1%	nt	-41%[inhibitor]
CC1CN(C)C(C)C/C1=N\Oc1ccc([N+](=O)[O-])cc1 (centres undefined)	7%	21	0.4	nt	-1.1	0%
Cc1[nH]nc2c1C(c1ccc3c(c1)OCO3)C(C#N)=C(N)O2 (centres undefined)	1%	3	0.6	-3.4%	-1.4	0%

Later entries:
SMILES	gsp antagonist	TRPML1 blocker	TRPML1 ag	ClpP mod	Menin MLL FP FL	gsp agonist
Cc1ccccc1OCC(O)Cn1nnc2ccccc21 (centres undefined)	-21%	11	6.7	3.9%	-1.1	?
CCOC(=O)c1[nH]ncc1CN1CCCC(C(=O)c2cccc3ccccc23)C1 (centres undefined)	7%	-1	0.6	0.6%	-5.4	-14%
O=C(Nc1ccc(N2CCCCC2)cc1)c1ccc2c(c1)OCCO2	-20%	7	-0.6	-6.1%	0.4	-25%
O=[N+]([O-])c1cc2c(cc1C=Nc1ccccc1)OCO2	2%	1	-0.1	?	-1.9	-1%[15.4 µM]
Cc1cc(NC(=O)C(C)SCC(=O)Nc2cc(Cl)ccc2N2CCN(C)CC2)no1 (centres undefined)	0%	2	0.0	-4.5%	nt	1%[15.4 µM]
COc1ccc2oc(=O)c(C(=O)N3CCN(c4ccccc4F)CC3)cc2c1	7%	14	-0.1	0.7%	2.5	13%
O=C(Nc1nnc(-c2ccco2)o1)c1ccc(S(=O)(=O)N2CCCC2)cc1	-17%	-10	0.3	0.7%	-3.7	?
CCN(CC)C(=O)CSc1nnc([C@@H](NC(=O)OC(C)(C)C)C(C)C)o1	9%	-16	0.3	-3.7%	0.4	5%
CCCC(C(=O)NCc1cccc(Cl)c1)N1Cc2ccccc2C1=O (centres undefined)	nt	-13	0.0	-3.2%	nt	nt
COc1ccccc1NC(=S)N(Cc1ccco1)Cc1cc2cc(C)c(C)cc2[nH]c1=O	-8%	-10	1.5	-24%	2.8	8%
Cc1c(CCO)sc[n+]1CC(=O)OCCC12CC3CC(CC(C3)C1)C2	9%	2	-0.4	nt	6.3	-1%[15.4 µM]
CC(=O)N1CSCC1C(=O)O (centres undefined)	3%	-9	-0.9	0.3%	-1.5	-57%[inhibitor]
Cc1ccc(S(=O)(=O)Oc2ccc(/C=N/NC(=O)c3cccnc3)cc2)cc1	-14%	4	2.1	nt	4.2	2%[15.4 µM]
CCCCC(=O)Nc1nnc(S(=O)(=O)N(CC)c2ccc(OC)cc2)s1	-5%	15	1.3	1.5%	-0.8	?
Cc1nnsc1C(=O)NNc1c(Cl)cccc1Cl	-1%	-9	0.2	nt	-0.4	?
CCOC(=O)CSc1nnc(Cc2ccccc2)n1CC1CCCO1 (centres undefined)	4%	-9	0.3	-3.1%	-1.6	-59%[inhibitor]
CC(Oc1ccc(Cl)cc1)C(=O)Nc1ccccc1C(=O)N1CCOCC1 (centres undefined)	10%	-10	0.0	1.0%	nt	-5%[15.4 µM]
CC(=O)Nc1ccc(NC(=O)COC(=O)Cn2cnc3ccccc32)cc1	-1%	5	0.5	-2.5%	nt	6%[15.4 µM]
Cc1cc(C(=O)NC(C)c2ccccc2)c2cc(F)ccc2n1 (centres undefined)	-1%	24	0.4	-11%	-5.6	-40%[inhibitor]
CN1C(=O)[C@H]2[C@@H](/C=C/c3ccccc3)N3C(=O)CN(CCO)C(=O)[C@@]3(C)[C@H]2C1=O	5%	3	-0.1	-2.3%	-0.2	19%
CC(C)(C)c1ccc(/C=C/C(=O)Nc2nncs2)cc1	5%	-1	1.8	-0.9%	3.1	-18%
